Screens deposited in PubChem by several laboratories.
Mtb growth: M. tuberculosis H37Rv growth inhibitors, H37Rv strain (AID 1626); inhibition, % at 10 µM, or IC50 in µM where a hit was titrated; 220,000 tested, 0.95% active; M. tuberculosis H37Rv growth inhibition; higher % means a stronger effect;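 active means confirmed in a dose series; inconclusive means inhibition above 80% but not taken into the dose series; inactive means below 80% or under 30% at every dose of the series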;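 further: bacteria incubated seven days before Alamar blue readout; 0% = bacteria only wells and 100% = bacteria with antibiotic wells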
Mtb betalactam: beta-lactam sensitization of Mtb H37Rv, H37Rv; M. tuberculosis H37Rv growth with meropenem, percent inhibition; hits of this screen are not shown here; inhibition, % at 25 µM; 330,000 tested, 0.27% active; AID 434955, 2010;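 active means about 74% or more and at least 40 points above the plate without the antibiotic, then above 30% in a dose series; inconclusive means first-round hits that could not be retested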;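 further: growth measured after seven days incubation then overnight dye step; 0% = bacteria only wells and 100% = bacteria with antibiotic; twin plates without the antibiotic show which effects depend on it; some results filed as inactive read as strong as hits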
YopH inh: YopH tyrosine phosphatase inhibitors, primary screen, biochemical, fluorescence Ex485/Em525. 140,000 tested, 0.16% active. AID 898, 2007. inhibition, %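 (about 10 µM by stock and volumes)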. YopH tyrosine phosphatase [Yersinia enterocolitica];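 active means inhibition of 50% or more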;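 further: controls were vehicle for no effect and minimum signal wells for full effect; inactives centre near -20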
Arbovirus inh: antivirals against arbovirus infection, primary screen, cell-based, full library, 10K replicate subset | AID 1251, 2008 | 200,000 tested, 0.37% active | arbovirus infection cell-based antiviral screen | inhibition, % at 10 µM;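 active means inhibition from about 30%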;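 further: bluetongue infection of BSR cells; cell survival read as ATP light after 72 h; 0% = infected wells without compound and 100% = uninfected wells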
RecA splice inh: Mtb RecA intein splicing inhibitors, primary screen, biochemical, fluorescence, HTS; Protein RecA (Mycobacterium tuberculosis (strain ATCC 25618 / H37Rv)), P9WHJ3; cell-free RecA intein splicing; inhibition, %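 (about 9 µM by stock and volumes)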; 290,000 tested, 0.75% active; AID 2221, 2009; in the data active means inhibition above about 30%; inconclusive means no clear call, values can overlap the other calls;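 further: 0% = vehicle wells and 100% = reference inhibitor control wells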
Target sequence (P9WHJ3 whole entry, looked up, canonical isoform): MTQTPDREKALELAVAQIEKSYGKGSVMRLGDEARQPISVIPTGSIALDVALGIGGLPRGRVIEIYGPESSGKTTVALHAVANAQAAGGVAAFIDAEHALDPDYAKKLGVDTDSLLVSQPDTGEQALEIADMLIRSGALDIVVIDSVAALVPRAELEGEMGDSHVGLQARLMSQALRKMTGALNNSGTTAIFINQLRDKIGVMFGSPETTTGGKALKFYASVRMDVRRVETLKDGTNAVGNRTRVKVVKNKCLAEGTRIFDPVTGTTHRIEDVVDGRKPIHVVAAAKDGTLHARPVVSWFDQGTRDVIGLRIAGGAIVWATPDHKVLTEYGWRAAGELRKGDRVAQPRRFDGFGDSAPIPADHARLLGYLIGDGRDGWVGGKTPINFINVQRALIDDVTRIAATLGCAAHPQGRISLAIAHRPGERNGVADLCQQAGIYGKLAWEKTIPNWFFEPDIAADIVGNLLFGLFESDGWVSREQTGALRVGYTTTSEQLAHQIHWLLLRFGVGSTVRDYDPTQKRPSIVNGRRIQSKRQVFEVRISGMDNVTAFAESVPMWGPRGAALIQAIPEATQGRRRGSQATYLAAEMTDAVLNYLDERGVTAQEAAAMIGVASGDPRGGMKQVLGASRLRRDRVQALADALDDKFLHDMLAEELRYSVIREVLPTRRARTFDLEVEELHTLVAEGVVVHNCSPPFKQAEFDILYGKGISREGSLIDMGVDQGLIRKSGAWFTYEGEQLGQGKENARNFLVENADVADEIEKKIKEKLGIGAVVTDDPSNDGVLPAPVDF
Arbovirus inh repeat: recorded beside Arbovirus inh, whose call it bears; inhibition, %; measured here: 10K subset replicate screen; many hits read low in the repeat;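 first of two repeat runs on a subset; 0% = infected and 100% = uninfected wells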
* = called active by the depositor; u = inconclusive; x = not tested or not shown.

SMILES	Mtb growth	Mtb betalactam	YopH inh	Arbovirus inh	RecA splice inh	others
Cc1c(NC(=O)COC(=O)c2ncc(Cl)c(Cl)c2Cl)c(=O)n(-c2ccccc2)n1C	x	-11	x	x	-0.3
C=CCNC(=O)c1ccc(CN(c2ccc(OCC)cc2)S(=O)(=O)c2ccc(C)cc2)cc1	x	-5	x	x	3.1
COc1ccc(/C=N/n2cnc3c([nH]c4ccc(F)cc43)c2=O)cc1CN1CCCC1	7%	-5	x	x	0.8
Cc1nn(Cc2cccc(C(=O)Nc3ccn(Cc4ccccc4F)n3)c2)c(C)c1[N+](=O)[O-]	6%	-15	-7	-7	0.7
O=C(Nc1ccc(-c2nc3ccccc3s2)c(OC(=O)c2ccccc2)c1)c1ccccc1	9%	55	-27	-5	-0.2
O=C(CN1C(=O)C2CC=CCC2C1=O)OCc1cc(=O)n2cc(Br)ccc2n1 (stereo unspecified)	3%	-6	x	3	0.6
C[C@]12CC[C@@H]3c4ccc(O[C@@H]5O[C@H](C(=O)O)[C@@H](O)[C@H](O)[C@H]5O)cc4CC[C@H]3[C@@H]1C[C@@H](O)[C@@H]2O	-10%	-1	x	x	-3.2
CCc1cc(C(=O)N2CCN(c3ncccn3)CC2)sc1C	x	-8	x	x	-0.5
O=C(CCN1C(=O)C2CCCCC2C1=O)Nc1ccc(Br)cc1F (stereo unspecified)	x	-14	x	x	-1.9
CCOC(=O)c1cc(CC)sc1NC(=O)COC(=O)c1cc[n+]([O-])cc1	-2%	-9	x	-11	-1.1
COc1ccccc1N1C(=O)c2cccc3cccc(c23)C1=O	x	1	x	x	3.0
CCc1ccc(N=c2c([N+](=O)[O-])nn(-c3ccc4c(c3)OCCO4)n2O)cc1	2%	12	x	-10	1.3
CCc1ccc(C(=O)Nc2cc3c(cc2Cl)OCCCO3)cc1	3%	70	-19	1	2.4
O=c1c2ccccc2nc2n1-c1ccccc1CCC2	-8%	-3	-21	1	-0.5
CCc1[nH]c(=O)[nH]c1C(C)S(=O)(=O)c1ccc(C)cc1 (stereo unspecified)	-6%	-4	x	-4	0.0
CCCN1Cc2cccc(C(=O)NC(C)c3cccs3)c2C1=O (stereo unspecified)	-4%	1	-6	-10	-1.7
COc1ccc(CNC(=O)C2CCN(c3nccs3)CC2)cc1	1%	-2	-31	1	x
c1ccc(-c2ccc(C3=Nn4c(nnc4-c4cc(-c5ccccc5)n[nH]4)SC3)cc2)cc1	-6%	0	36	-2	3.4
CN(C(=O)c1cnc2n(c1=O)CCS2)C1CCCCC1	3%	0	-8	3	0.1	Arbovirus inh repeat=0
O=C(CCS(=O)(=O)c1ccc(Cl)cc1)N1CCN(c2ccccc2F)CC1	-5%	1	-49	3	-2.7

Looked up by compound from the entries so far, 3 records:
SMILES	Mtb growth	Mtb betalactam	YopH inh	Arbovirus inh	RecA splice inh	others
COc1ccc(CNC(=O)C2CCN(c3nccs3)CC2)cc1	1%	-2	-31	1	x
O=C(CCS(=O)(=O)c1ccc(Cl)cc1)N1CCN(c2ccccc2F)CC1	-5%	1	-49	3	-2.7
c1ccc(-c2ccc(C3=Nn4c(nnc4-c4cc(-c5ccccc5)n[nH]4)SC3)cc2)cc1	-6%	0	36	-2	3.4

Other compounds:
SMILES	Mtb growth	Mtb betalactam	YopH inh	Arbovirus inh	RecA splice inh	others
CCC(C(=O)NCCCN1CCN(CC)CC1)n1nc(C)n2c(cc3occc32)c1=O (stereo unspecified)	x	2	x	x	-3.1
CCN(Cc1ccccc1)S(=O)(=O)c1ccc(S(=O)(=O)N2CCN(C)CC2)cc1	-8%	5	-53	10	0.2
CCOC(=O)c1oc2ccccc2c1CN1CCOCC1	-4%	-1	-16	5	0.3
CSCCC(NS(=O)(=O)c1ccc2c(c1)oc(=O)n2C)C(=O)NC1CCCc2ccccc21 (stereo unspecified)	x	-5	-48	-9	-3.1
CCN(CC)S(=O)(=O)c1ccc(NC(=S)NC(=O)C(C)C)cc1	2%	-12	-26	-6	-3.6
CCC(OC(=O)C1=Cc2ccccc2OC1)C(=O)NC1CCCC1 (stereo unspecified)	-3%	-2	-22	6	-1.3
CSc1ncc(C(=O)Nc2ccc(C)cc2C)c(C)n1	x	96	x	x	0.2
Cc1cc(NC(=O)Nc2ccc(C)c(C)c2)no1	3%	7	x	5	-1.5
Cc1cccc(N2CCN(C(=S)Nc3ccc4nc(N5CCN(C)CC5)cc(C)c4c3)CC2)c1C	u	x	x	-20	-1.6
CN(C)C(=O)CCCc1nc(-c2ccc(Cl)cc2)no1	4%	x	-12	-1	0.2
COc1cccc(C(=O)NCCS(=O)(=O)NCCc2ccc(OC)c(OC)c2)c1	x	-4	x	x	0.2
COc1ccccc1C(=O)Nc1ccccc1SC(=O)c1ccccc1OC	x	5	x	x	-2.0
COc1ccc(NC(C)=O)cc1NC(=O)c1ccc2ccccc2c1	1%	0	x	-3	-2.0
CC(CCc1ccccc1)NC(=O)c1ccc(Br)o1 (stereo unspecified)	-1%	-6	-2	7	2.6
CCOc1ccccc1NC(=O)CC(O)(C(F)(F)F)C(F)(F)F	0%	-4	5	7	0.8
O=C(O)CSc1nnc(-c2cccnc2)n1Cc1ccccc1	-10%	-3	-41	1	1.1
COCc1nnc(NS(=O)(=O)c2c(C)cc(C)cc2C)s1	-9%	11	-59	4	-0.3
COC(=O)c1ccccc1Oc1cc(C(F)(F)F)nc(-c2ccccn2)n1	x	-3	x	x	5.8
CC(C)c1ccc(C(=O)NN2C(=O)C3CCCCC3C2=O)cc1 (stereo unspecified)	1%	4	-19	10	-0.7
CC(C)OCCCNC(=O)c1ccc(CS(=O)(=O)Cc2ccccc2F)o1	-10%	-7	-3	8	0.1
CSc1ccc(CCNC(=O)c2nn(C)c3c2CS(=O)(=O)c2ccccc2-3)cc1	x	2	x	x	-2.5
CSCCC(NC(=O)c1ccc(=O)n(C)n1)c1nc2ccccc2[nH]1 (stereo unspecified)	0%	-8	-10	3	1.4
COc1ccccc1/C=N/NC(=O)C(NC(=O)c1ccccc1)=C(C)C	-10%	-5	-51	-1	0.1
COc1ccc(Br)cc1S(=O)(=O)N1CCN=C1c1ccccc1	x	-3	x	x	1.5
O=C1NC2(CCCCC2)C(=O)N1Cc1cccc(C(F)(F)F)c1	5%	2	x	-1	7.4
CCc1ccc(OC(C)C(=O)Nc2ccc(S(=O)(=O)Nc3cc(C)on3)cc2)cc1 (stereo unspecified)	x	-3	x	x	5.0
CCOC(=O)c1[nH]c(C)c(C(=O)OCC(=O)Nc2sc3c(c2C#N)CCCCC3)c1C	3%	6	x	-7	0.1
Cc1ccc(CC2CC(=O)N(c3cc(Cl)ccn3)C2=O)cc1 (stereo unspecified)	-7%	1	x	x	-1.4
Cc1ccc2c(Cl)c(C(=O)NCCc3ccccc3)sc2c1	3%	60	-19	1	0.1
CC(C)Sc1nc2[nH]ncc2c(=O)[nH]1	-11%	-11	x	2	-1.2
CCOc1ccc(C(C)NC(=O)c2ccccc2F)cc1 (stereo unspecified)	3%	0	-11	2	1.7
Cc1nn(C(C)C(=O)NCc2cccs2)c(=O)c2nn(-c3ccccc3)c(C)c12 (stereo unspecified)	x	-4	x	x	-0.1
CCCCNC1=CC(=O)C(=O)c2ccccc21	1%	17	x	-30	97*
COc1ccc(S(=O)(=O)N2CCC(C(=O)N3CCCC3)CC2)cc1Cl	-7%	-7	-6	5	-0.7
COc1ccc(N2CC(C(=O)Nc3nc(-c4ccccc4)c(C(C)=O)s3)CC2=O)c(OC)c1 (stereo unspecified)	x	1	x	x	-19
CC(=O)c1c(C)[nH]c(C(=O)CSc2ccc(F)cc2)c1C	x	-11	x	x	-0.9
Cc1cc2nc(C)n(CCCN)c2cc1C	-5%	1	-29	6	-1.9
Cc1cc(/C=C2/C(=O)NC(=O)N(Cc3ccco3)C2=O)c(C)n1-c1ccccc1O	u	8	x	x	-3.0
CCc1nn(CC(=O)NCCCN2CCN(CC)CC2)c(=O)c2cc3occc3n12	x	-2	x	x	-2.0
CSc1nc(-c2ccccc2)c2cc(Cl)ccc2n1	7%	0	-24	-17	1.1
CCOC(=O)N1CCC(NCc2c(C(=O)N(C)Cc3ccccc3)nc3ccccn23)CC1	5%	-9	x	3	0.0
CCCCNC(=O)c1ccccc1C(=O)NCCCC	-12%	3	-38	2	-3.9
COc1ccc(OC)c(CCNC(=O)CN2C(=O)CC(C)(C)S(=O)(=O)c3ccccc32)c1	4%	u	-45	4	1.0	Arbovirus inh repeat=-2
COCCCn1cnc2oc3nc4ccccc4nc3c2c1=O	-11%	-15	-11	4	-4.2
CON/C=C(\C=Nc1ccccc1)c1ncc(C(F)(F)F)cc1Cl	1%	-1	-25	13	1.4
O=C(c1oc2ccccc2c1N1CCCCC1)N1CCCCC1	7%	2	-25	-12	1.7
CN(C)S(=O)(=O)c1ccc(S(=O)(=O)N2CCCC(C(=O)NC3CC3)C2)cc1 (stereo unspecified)	x	-1	x	x	-5.2
O=C(C1CCCO1)N(Cc1ccccc1)c1ccccc1 (stereo unspecified)	0%	-8	32	-1	0.2
CCC(=O)c1ccc(N2CCN(C(=O)c3ccccc3)CC2)c(F)c1	5%	1	x	4	5.2
Cc1ccc(-n2c(C)c(C)c3c(N)ncnc32)cc1	x	1	x	x	1.8

Additional compounds follow:
SMILES	Mtb growth	Mtb betalactam	YopH inh	Arbovirus inh	RecA splice inh	others
O=C(c1ccccc1)N1CCN(Cc2ccccc2)CC1	0%	-1	-13	1	-1.8
Nc1nnc(SCc2ccc(F)cc2)n1-c1ccccc1	-3%	-13	-1	5	1.7
Cc1ccc(C)c(N(Cc2ccccc2F)S(C)(=O)=O)c1	-4%	-11	5	-6	-3.2
CS(=O)(=O)N1CCC(C(=O)NCc2ccc(Cl)cc2Cl)CC1	2%	-10	x	1	-0.9
Cc1ccc(-n2nc(C)c3c2OC(N)=C(C#N)C3c2ccoc2)cc1 (stereo unspecified)	1%	3	-35	-3	71*
CCOC(=O)COc1c(/C=N\OC)cc(Cl)cc1OC	2%	63	x	2	1.0
CCOCCCNC(=O)C1CCN(S(=O)(=O)N(CC(C)C)CC(C)C)CC1	-8%	-7	-23	0	x
Cn1c(SCc2ccc([N+](=O)[O-])cc2)nnc1-c1cccnc1	6%	7	x	6	-0.3
CCC(=O)NC(=S)Nc1cccc(NC(=O)c2ccc(Cl)cc2Cl)c1	4%	-8	-24	-3	4.9
COC(=O)C(c1ccccc1)C(C(=O)OC)c1ccccc1 (stereo unspecified)	x	4	x	x	-1.4

Structural class: the entries above with bromine (four)
SMILES	Mtb growth	Mtb betalactam	YopH inh	Arbovirus inh	RecA splice inh	others
O=C(CN1C(=O)C2CC=CCC2C1=O)OCc1cc(=O)n2cc(Br)ccc2n1 (stereo unspecified)	3%	-6	x	3	0.6
O=C(CCN1C(=O)C2CCCCC2C1=O)Nc1ccc(Br)cc1F (stereo unspecified)	x	-14	x	x	-1.9
CC(CCc1ccccc1)NC(=O)c1ccc(Br)o1 (stereo unspecified)	-1%	-6	-2	7	2.6
COc1ccc(Br)cc1S(=O)(=O)N1CCN=C1c1ccccc1	x	-3	x	x	1.5

(list continues)
SMILES	Mtb growth	Mtb betalactam	YopH inh	Arbovirus inh	RecA splice inh	others
Cc1onc(-c2c(Cl)cccc2Cl)c1C(=O)N1CCN(c2ncccn2)CC1	7%	0	x	-6	-1.3
Cc1cc(C)n(-c2ccc(Cl)c(C(=O)Nc3ccc(OC(F)(F)F)cc3)n2)n1	2%	-3	-34	5	0.9
CC(C)CNc1cc(Cl)c(S(=O)(=O)NCC(C)C)cc1C(=O)O	-9%	17	-16	4	2.2
Cc1cc(Cl)c(S(=O)(=O)NCc2ccncc2)cc1OCC(N)=O	6%	-5	36	3	-0.5
CCCCCn1c(=O)[nH]c2cc(C(=O)NCc3ccccn3)ccc2c1=O	-11%	-10	x	25	-0.7
Cc1ccc(S(=O)(=O)N(C)CCCC(=O)N2CCN(C=O)CC2)cc1	-6%	-4	-25	5	0.9
C[C@]12CCC3C(CCC4=C/C(=N/OCC(=O)NC(CCC(N)=O)C(=O)O)CC[C@@]43C)C1CCC2O (stereo partly specified)	x	2	x	x	-0.2
Cc1ccc(NC(=O)CSc2nc(NS(=O)(=O)c3ccc(C)cc3)cc(=O)[nH]2)cc1	-3%	-10	-31	2	-1.1
CC1Cc2cc(/C(O)=C3/C(=O)C(=O)N(CCCn4ccnc4)C3c3cccnc3)ccc2O1 (stereo unspecified)	0%	6	-40	5	-0.8
COc1c(C)cc(C(=O)C2CCCN(C(=O)c3cccc(-n4cccn4)c3)C2)cc1C (stereo unspecified)	7%	3	x	-5	-1.7

A portion of the library; count on the stated rates, not on these rows.
